Compound activity deposited in PubChem BioAssay by National Center for Advancing Translational Sciences (NCATS).
HPGD inh: HPGD (human) dehydrogenase inhibition; Potency, µM, inactives show top-dose activity change, negative = inhibition, usual class: inhibitors; 150,000 tested, 4.3% active; P15428; purified HPGD, NADH fluorescence kinetic, PGE2 substrate; active = well fitted inhibition curve with a large enough effect (not every such curve was filed as active); inconclusive = small, poorly fitted or top-dose-only effect, or another doubt; inactive = no such curve, though single readings can be large or run the other way;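 also: top concentration of the series not given in the record; plate controls included wells without enzyme; inactives centre near -10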
Target sequence (P15428 whole entry, looked up): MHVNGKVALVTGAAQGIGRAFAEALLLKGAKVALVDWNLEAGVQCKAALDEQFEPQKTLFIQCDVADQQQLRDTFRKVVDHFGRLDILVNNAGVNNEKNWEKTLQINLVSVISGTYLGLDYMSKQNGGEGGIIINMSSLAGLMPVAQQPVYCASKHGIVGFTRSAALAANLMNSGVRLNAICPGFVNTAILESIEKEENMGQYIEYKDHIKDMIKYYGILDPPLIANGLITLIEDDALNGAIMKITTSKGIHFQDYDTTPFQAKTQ
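NADH formation kinetics: reaction with 30 uM PGE2 and 1 mM NAD+ (final), 20 nM enzyme, Tris-HCl pH 8 with Tween 20, after 15 min compound preincubation at room temperature. Fluorescence change, last versus first of five reads.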
Starred values were filed as active, the others as inactive; ? = inconclusive; & = joins results of further samples; [ ] = remark or other dose. % is scaled to controls: 0 for no effect and ±100 for the full control effect; potency is read from the fitted curve at half-maximal effect. Not all compounds are listed (hit frequency here may not be typical).

SMILES	HPGD inh
CCOC(=O)c1ccc(NC(=O)CN(C)S(=O)(=O)c2ccc(Br)s2)cc1	-22.0%
Cc1nc2ccc(CCO)cc2s1	-10.3%
COc1ccc(CCN(C(=O)c2ccccc2)C2=CC3CCC(C2)N3C)cc1OC (stereo not drawn)	-13.6%
Cc1ccc(C(=O)N/N=c2\sc3ccccc3n2C)cc1	-14.6%
CCc1ccc2oc(-c3cccc(NC(=O)c4cccnc4)c3)nc2c1	-14.2%
Cc1ccc(SC(c2ccccc2)C(Cn2cncn2)C(=O)c2ccccc2)cc1 (stereo not drawn)	-4.8%
O=C(Nc1nc2ccc(S(=O)(=O)N3CCCCC3)cc2s1)C1CCCO1 (stereo not drawn)	-5.8%
CC(c1nnc(SCC(=O)c2c(N)n(C)c(=O)n(C)c2=O)n1-c1ccc(Cl)cc1)N(C)C (stereo not drawn)	-10.8%
Cc1ccc(C(=O)Nc2ccc3cn[nH]c3c2)cc1S(=O)(=O)N1CCCCC1	-14.2%
CCCCN(C(=O)CSc1cc(C)c2ccccc2n1)c1c(N)n(Cc2ccccc2)c(=O)[nH]c1=O	-4.0%
Cc1nc2cc(C(F)(F)F)ccc2n1C1CCN(C(=O)N2CCOCC2)CC1	-7.4%
Cn1ncc(Cl)c1C(=O)Nc1cccnc1	-20.8%
COC(=O)C/C=C/[C@@H](C)[C@H](NC(=O)OCC(Cl)(Cl)Cl)c1cccc(OC)c1	-4.1%
O=C(c1ccc(F)cc1)c1ccc(N2CCCC2)cc1	28.2µM*
CCCN(CCC)S(=O)(=O)c1ccc(NC(=O)Cc2cccs2)cc1	-24.5%
Cc1cc(C)c(NC(=O)CSc2nccn2C)c(C)c1	6.31µM*
CC(=O)Nc1ccccc1NC(=O)C/C(C)=N/NC(=O)c1ccc([N+](=O)[O-])c(Cl)c1	-4.3%
Nc1ccc(C(=O)O)cc1	-11.7%&-7.0%
COc1ccccc1N1CCN(S(=O)(=O)c2cccc3nsnc23)CC1	-15.8%
CCCCCCCCNC(=O)c1cnccn1	-7.1%
Cc1noc(C)c1C(=O)Nc1cccnc1	-0.2%
O=C1C2CCCN2C(c2ccccc2F)N1c1ccc(Cl)cc1 (stereo not drawn)	-6.3%
O=C(NCCO)/C(=C\c1cccc([N+](=O)[O-])c1)NC(=O)c1ccco1	-4.6%
COc1ccc(S(=O)(=O)N2CCCC(C(=O)O)C2)cc1 (stereo not drawn)	1.6%
COc1ccc(CN2C(=O)C3C4C=CC(C4)C3C2=O)cc1 (stereo not drawn)	-2.2%
O=c1[nH]c(-c2ccccc2)cs1	-1.1%
Cc1nnc(SCc2cc(=O)oc3ccc4ccccc4c23)n1Cc1ccccc1	35.0%[activator]
Cc1nc(SCc2c(F)cccc2Cl)c2c(=O)n(C)c(=O)n(C)c2n1	-14.4%
CN1CCN(CC(=O)Nc2c(C(=O)C3CC3)oc3ccccc23)CC1	-12.3%
COc1ccc(C(=O)COC(=O)c2ccc(NC(=O)c3ccccc3)cc2)cc1	?
COC(=O)c1ccc(CSc2nc3scc(-c4cccs4)c3c(=O)[nH]2)o1	?
O=C1CC(N2CCC(c3nc4ccccc4o3)CC2)C(=O)N1c1cc(Cl)cc(Cl)c1 (stereo not drawn)	-17.0%
COc1ccc(S(=O)(=O)N(CC(=O)O)c2ccc(C)cc2)cc1	-3.2%
COC(=O)C1=C(C(=O)OC)[C@@H]2N(C)c3ccc(OC)cc3[C@@]23C[C@@H](C(=O)OC)N(C(C)=O)C3=N1	-5.2%
O=C(COC(=O)c1ccc(-c2cnc3ccccc3n2)cc1)c1ccccc1	-15.2%
Cc1ccc(C(=O)Nc2nnn(C)n2)cc1	-13.8%
CN(C)c1ccc(/C=N/NC(=S)NCc2ccccc2)cc1	?
COc1ccccc1-n1c(SCC(=O)NC(C)(C)C)nc(O)c(Cc2ccccc2)c1=O	-11.3%
COc1ccc(-c2nc(C#N)c(N3CCc4ccccc4C3)o2)cc1OC	?
CCC(=O)NCC(=O)OCC(=O)c1ccccc1	-11.3%
CCS(=O)(=O)NCC(c1cccnc1)N1CCN(c2ccccc2F)CC1 (stereo not drawn)	-5.5%
O=C(O)Cn1c(CC(=O)N2CCCC2)nc2ccccc21	-1.5%
COc1ccc(CCNC(=O)C2CCCN(c3nn4c(=O)cc(C)nc4s3)C2)cc1OC (stereo not drawn)	-13.1%
Cc1ccsc1/C=C(\C(=O)c1ccc(OC(C)C)cc1)c1nc2ccccc2o1	?
Cc1cc(O)c(C(C)C)cc1C1(c2cc(C(C)C)c(O)cc2C)OC(=O)c2ccccc21	-3.1%
O=C(/C=C/c1c(Cl)cccc1Cl)NCCc1ccccc1	-14.7%
CCc1c(O)nc(SCC(=O)NCc2ccco2)[nH]c1=O	-3.3%
COC(=O)C1=C(COc2ccc(C=O)cc2OC)NC(=O)NC1c1cc(C)ccc1C (stereo not drawn)	-6.3%

6 entries already listed, arranged by the value under HPGD inh, lowest first:
SMILES	HPGD inh
O=C(/C=C/c1c(Cl)cccc1Cl)NCCc1ccccc1	-14.7%
COc1ccc(CCNC(=O)C2CCCN(c3nn4c(=O)cc(C)nc4s3)C2)cc1OC (stereo not drawn)	-13.1%
COC(=O)C1=C(COc2ccc(C=O)cc2OC)NC(=O)NC1c1cc(C)ccc1C (stereo not drawn)	-6.3%
CCS(=O)(=O)NCC(c1cccnc1)N1CCN(c2ccccc2F)CC1 (stereo not drawn)	-5.5%
CCc1c(O)nc(SCC(=O)NCc2ccco2)[nH]c1=O	-3.3%
Cc1cc(O)c(C(C)C)cc1C1(c2cc(C(C)C)c(O)cc2C)OC(=O)c2ccccc21	-3.1%

(cont.)
Compound | HPGD inh
COc1ccc(CNC(=O)CN(Cc2ccc(Cl)cc2)S(C)(=O)=O)cc1 | -5.8%
CCOC(=O)c1c(N)sc2c(OCC)c(Br)ccc12 | -3.7%
Cc1nnc(N/N=C/c2cccc(OCc3ccc(Cl)c(Cl)c3)c2)n1N | -13.6%
CCOc1ccc(Nc2oc(-c3ccccc3Cl)nc2C#N)cc1 | ?
CCCCN1C[C@H](O)[C@@H](O)[C@H](O)[C@H]1CO | -9.4%
Cc1cc(C)cc(N2C(=O)N(c3ccccc3C)C3CS(=O)(=O)CC32)c1 (stereo not drawn) | -1.0%
COc1cccc([C@@H]2Oc3ccc(OC)cc3C[C@H]2OC(=O)NS(=O)(=O)c2ccc(C)cc2)c1 | -20.1%
Cc1cc(C)nc(NS(=O)(=O)c2ccc(N/C=C\C(=O)c3ccc(Cl)cc3)cc2)n1 | -11.1%
CCN(c1cccc(C)c1)c1nc2ccsc2c(=O)s1 | -14.2%
CC(C)CCNC(=O)c1ccc(Cl)c(NC(=O)Cc2ccccc2)c1 | -3.7%
CC(OC(=O)CNC(=O)C12CC3CC(CC(C3)C1)C2)C(=O)Nc1ncc(Cl)cc1Cl (stereo not drawn) | -18.5%
COc1ccc(Nc2nc(-c3ccccc3)cs2)cc1 | -14.7%
CCCCC(=O)Nc1ccc(NC(=O)C(C)C)cn1 | -4.6%
O=C(CN1C(=O)S/C(=C/c2ccncc2)C1=O)N1CCOCC1 | 0.8%
CC(=O)[C@H]1CC[C@H]2[C@@H]3CCC4=CC(=O)CC[C@]4(C)[C@H]3[C@H](O)C[C@]12C | -12.7%
COc1ccc(CC(=O)OCC(=O)Nc2ncc(Cl)cc2Cl)cc1 | -4.9%
CN(C)c1ccc(C(=O)NCC2CCCO2)cc1 (stereo not drawn) | 14.1µM*
Cc1cc(C)n2nc(C(=O)N/N=C/c3c4ccccc4cc4ccccc34)nc2n1 | -19.7%
COc1ccc(O)c(C(=O)c2cc(C(=O)NCCc3ccccc3)c(=O)n(CCc3ccccc3)c2)c1 | -21.0%
COc1ccc(-c2csc(NC(=O)COC(=O)c3ccc(Br)o3)n2)cc1 | -1.9%
Cc1ccc(C2Nc3cccc4cccc(c34)N2)s1 | -28.7%
C/C(=N\NC(=O)c1ccccc1)c1ccccc1Br | -18.6%
COC(=O)CSc1nnc(CNc2ccc(OC)cc2)n1C | -10.1%
CCN(CC)S(=O)(=O)c1ccc(S(=O)(=O)Nc2ccc(C(=O)N3CCCC3)cc2)cc1 | -9.5%
Cc1ccc(NC(=O)CN(C)C(=O)Cn2ncc(Cl)c(Cl)c2=O)cc1 | -7.4%
Nc1nnc(-c2ccc(F)cc2)s1 | -17.0%
COc1ccc(OC)c(NC(=O)c2cc(-c3cc(Cl)ccc3O)n[nH]2)c1 | ?
CCn1cnc2cc(NCc3ccc(OC)cc3)ccc21 | -18.3%
O=c1[nH]ccc2c(O)cccc12 | ?
COc1cc2c(cc1OC)-c1cc(OCc3cccnc3)nc(=O)n1CC2 | ?
CC1=C(C#N)C(c2cccnc2)C2=C(CCCC2=O)N1 (stereo not drawn) | ?
O=C(CSc1ccc2nnc(-c3cccc(F)c3)n2n1)NCC1CCCO1 (stereo not drawn) | ?
Cc1nc2ccc(NC(=O)Cc3ccc4c(c3)OCCO4)cc2s1 | -10.7%
Cc1ccc(Cc2cncc(O)c2)cc1S(=O)(=O)O | -7.9%
COc1ccc(C(=O)N2CC(=O)N(CCc3ccccc3)C(=O)C2)cc1OC | -6.4%
CSc1sc(C(=O)O)c(C)c1C(C)=O | -11.9%
COC(=O)c1ccc(CSc2nnc(Nc3ccc(OC)cc3)s2)o1 | -9.5%
O=C(NC1CCCCCC1)C1c2ccccc2C(=O)N1Cc1ccco1 (stereo not drawn) | -1.9%
O=C(CN(Cc1ccco1)C(=O)Cn1nnc(-c2cccs2)n1)NCc1ccccc1 | -3.1%
CC(C)CCC(C(=O)O)C(C)CC(=O)NC1CCCCC1 (stereo not drawn) | -7.0%
CCOCCCn1c(=NC(=O)c2ccc(OC)c(OC)c2)c(C#N)cc2c(=O)n3cccc(C)c3nc21 | ?
N#Cc1sc2nc(C3CC3)cc(-c3ccc(Cl)cc3)c2c1N | ?
Cc1cc(C)n(CCn2nc(C)cc2C)n1 | -10.4%
O=C(O)CCCC(=O)Nc1cccc(-c2nc3ccccc3[nH]2)c1 | ?
CNCC/C=C1/c2ccccc2CSc2ccccc21 | -0.5%
C#CCOCCOCCOCCNc1nc(N2CCOCC2)nc(N2CCN(C(=O)[C@H]([C@@H](C)CC)n3cc(CCCCN)nn3)CC2)n1 | -8.5%
CC(C)c1ccc(C2=NN(c3ccccc3)C(=O)CC2)cc1 | -19.2%
CCCCC[C@H](O)/C=C/C=C/C/C=C\CCCC(=O)O | -2.2%
CC(C)(C)NC(=O)c1ccc(COCC(F)(F)F)o1 | 0.2%
CC(=O)N/C(=C/c1ccc(Cl)cc1)C(=O)NCCc1c[nH]c2ccccc12 | 0.3%
Cc1nc2sccn2c1-c1csc(NCc2ccccc2)n1 | -21.0%
COc1ccc2c(Cl)c(C(=O)NCC3CCCO3)sc2c1Cl (stereo not drawn) | -17.0%
CCOC(=O)C1C(=O)CC(C)(O)C(C(=O)OCC)C1c1ccccc1OC (stereo not drawn) | -4.1%
O=[N+]([O-])c1cc(C(F)(F)F)ccc1N1CCN(S(=O)(=O)c2ccc3ccccc3c2)CC1 | -3.8%
Cc1ccc(C)c2sc(NC(=O)c3nc4ccccc4s3)nc12 | -15.0%
Cc1c(-c2cccc(Cl)c2)nc2ccccc2c1C(=O)OCC(=O)Nc1ccc2c(c1)OCO2 | -20.3%
O=C1C(=O)N(CCN2CCOCC2)C(c2ccccn2)/C1=C(/O)c1ccc(Cl)cc1 (stereo not drawn) | -1.1%
Cc1nonc1OCCNc1ccc([N+](=O)[O-])cc1[N+](=O)[O-] | -14.9%
Cc1cc(N2CCCCC2)nc(SCC(=O)c2ccccc2)n1 | -7.6%
CCc1ccc(-c2cc(C(=O)NCc3ccco3)c3ccccc3n2)s1 | ?

Continuation.
Compound | HPGD inh
CCOc1c(OC)ccc2c3c(c(=O)oc12)CCCC3 | ?
Cc1ccc(/C=C2\Sc3ccccc3C2=O)s1 | -8.5%
C/C=C(\C)CN1CCN(c2ccc(C)cc2)CC1 | 1.4%
CCN1CCN(C(=S)NC(C)c2ccccc2)CC1 (stereo not drawn) | -11.6%
CCOC(=O)N1CCN(C(=O)c2ccccc2NC(=O)c2ccc(F)cc2)CC1 | -10.4%
O=C(NCCN1CCOCC1)c1cc(-c2ccccc2)on1 | -1.4%
Cc1cc(-c2n[nH]c(=S)n2/N=C/c2cccc([N+](=O)[O-])c2)n[nH]1 | ?
CN(C)c1ccc(CC(=O)c2nc3ccccc3s2)cc1 | -7.9%
Cc1ccc(C)c(NC(=O)C2CC3c4ccccc4C2c2ccccc23)c1 (stereo not drawn) | -0.6%
Clc1ccc2scc(CN3CCCCC3)c2c1 | -8.6%
O=C(Nc1ccc(Oc2ccccc2)cc1)c1ccc(Cn2c(=O)[nH]c3ccsc3c2=O)cc1 | -1.4%
Cc1noc(C)c1S(=O)(=O)NCc1ccc2c(c1)OCO2 | -28.6%
CCCCC[C@H](O)/C=C/[C@@H]1[C@@H](CC(=O)CCCCC(=O)O)[C@@H](O)C[C@H]1O | -7.3%
CC1CCN(c2nc3c(c(=O)[nH]c(=O)n3C)n2CCSc2nc3ccccc3o2)CC1 | -4.6%
Cn1cc(Br)c(C(=O)N2CCc3ccccc32)n1 | -9.8%
N[C@@H](CS(=O)O)C(=O)O | -5.2%&-4.9%
C=CCn1c(SCC(=O)Nc2ccccc2OC)nnc1-c1ccco1 | -20.6%
CN(C(=S)NC(=O)C1(C)CC1(Cl)Cl)c1ccccc1 (stereo not drawn) | -8.5%
CC(=O)c1ccc(Nc2ncnc3c2oc2ccccc23)cc1 | ?
CN1CCN(Cc2c(O)ccc3c(-c4ccccc4)cc(=O)oc23)CC1 | -10.4%
CCOc1ccc2[nH]c(=O)c(C(c3nnnn3C3CCCCC3)N3CCN(C)CC3)cc2c1 (stereo not drawn) | ?
COc1ccc(/C=C2\N=C(c3c(-c4ccccc4)noc3C)OC2=O)cc1OC | 0.0%
Cc1ccc(N/C=C(/C#N)c2ccsc2)cc1 | -8.1%
